KSHV LANA nucl: inhibitors of KSHV LANA binding to nucleosomes; AID 720717; FITC-LANA1-23 / chicken nucleosome fluorescence polarization; stronger effect = lower value; 51,000 compounds, 0.3% hits; z-score (concentration not given with the values);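 active = both repeat wells score below -2 in polarization z-score versus plate sample wells, excluding overly bright wells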;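 note: 100 nL library stock added to about 30 µL; numbers are from one replicate; some results filed as inactive read as strong as hits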
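System – purified chicken nucleosomes with FITC-labelled LANA N-terminal peptide (1-23) · Amount – 240 nM purified chicken nucleosomes (480 nM peptide binding sites), final · Also added – 50 nM FITC-LANA1-23 probe · Medium – TEN-BT buffer, pH 7.5 · Incubation – compound with peptide–nucleosome mix 10–45 min at room temperature · Detection – fluorescence polarization, ex 480 nm, em 535 nm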
Ab BasE inh: BasE siderophore biosynthesis inhibition; 84,000 compounds, 0.1% hits; inhibition, % (concentration not given with the values); purified BasE, fluorescence polarization binding displacement;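 active = both replicates above 25% with normal brightness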;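 note: 0% = negative plate control signal and 100% = positive plate control signal; stock transfer was 100 nL into about 30 µL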
Active calls of the source: *; · = not tested or not shown; & = joins results of further samples.

SMILES,Ab BasE inh,KSHV LANA nucl
CNc1nc(NCc2ccco2)c2ccccc2n1,-2.3,-0.03
Cc1cc2c(n1-c1ccc(Br)cc1)CC(C)(C)CC2=O,3.0,0.37
CCn1cc(C(=O)NCCCN2CCN(c3cccc(Cl)c3)CC2)c(=O)c2cc(S(=O)(=O)N(C)C)ccc21,-2.7,0.77
O=C(CCC(=O)c1cccs1)NCC1CCCO1 (stereo not given),2.5,·
CCCCOc1ccccc1-c1nc(SCC(=O)O)n[nH]1,-0.3,0.96
CCOC(=O)N1CCN(C(=O)CSCC(=O)Nc2nc(-c3cccs3)cs2)CC1,2.1,·
NC(=O)NNC1=Nc2cccc3cccc1c23,4.3,·
Cc1c(/C=N/O)sc2ccccc12,0.4,·
N#Cc1c(F)cccc1C(C#N)(c1ccccc1)N1CCOCC1 (stereo not given),·,-0.36
C=CCc1cccc2cc(C(=O)O)c(=O)oc12,-2.6,·
CP(=O)(O)C(c1cccc(Cl)c1)C(F)(F)F (stereo not given),-0.6,·
O=C1CSc2ccc(C(=O)N3CCN(S(=O)(=O)/C=C/c4ccccc4)CC3)cc2N1,1.0,·
Cc1cncc(C(=O)NN)c1,1.1,1
CN1CCC(N(C)C(C(=O)Nc2ccc(F)cc2)c2ccccc2)CC1 (stereo not given),-3.5,·
CCCN(Cc1ccc(N(CC)CC)cc1)CC1CC1,-1.5,0.76
c1ccc(C2=NN3COc4ccccc4C3C2)cc1 (stereo not given),-0.2,0.11
O=C(O)c1ccc(C#Cc2ccccc2)cc1,0.9,·
CCOC(=O)N1CCC(NC(=O)Nc2cc(C)oc2C(F)(F)F)CC1,-0.4,·
CCn1c(-c2ccc3c(c2)OCCO3)cnc1SCC(=O)c1cc(C)n(-c2ncn[nH]2)c1C,1.3,·
Cc1ccc(S(=O)(=O)Nc2cc(C(F)(F)F)ccc2N2CCOCC2)c(C)c1,-5.8,·
O=C(NC1CCCCC1)c1ccc(CN2CCOCC2)cc1,-1.0,0.6
N#CCC(=O)Nc1cccnc1,·,-0.0065
COC(=O)c1cc(Cl)c(N)cc1OC,1.0,-0.79
NC(=Nc1ccccc1)SC1CC(=O)N(c2ccccc2)C1=O (stereo not given),-0.2,-0.11
Cc1ccc2c(c1)c(=O)c(Br)c(C)n2Cc1ccccc1,-0.2,-0.56

(cont.)
SMILES,Ab BasE inh,KSHV LANA nucl
O=C(/C=C/c1cccs1)Nc1ccc(N2CCCC2)c(C(=O)O)c1,·,2.1
CN(C)c1ccc(-c2nc3cc(NC(=O)c4ccccc4)ccc3o2)cc1,-0.3,1.8
C1=CSC(=C2SC=CS2)S1,1.1,·
COC(=O)c1c(CSc2nnc(-c3ccco3)o2)nc2ccccc2c1-c1ccccc1,-4.0,·
CCC1CCC(c2nnc(-c3ccc(Br)cc3)o2)CC1 (stereo not given),1.4,·
O=C(Nc1ccc(Oc2ncnc3sc4c(c23)CCC4)cc1)c1ccco1,0.9,·
CC(C)COc1ccc2c3c(c(=O)oc2c1)CCCC3,0.3,·
O=C(Nc1cc(Cl)ccc1Cl)C(O)(c1ccccc1)c1ccccc1,0.5,·
COC(=O)[C@H](Cc1ccc(O)cc1)NC(=O)c1cccc(Cl)c1,0.3,·
O=C1OCCN/C1=C/C(=O)c1ccccc1,2.5,·
CC(C)CS(=O)(=O)c1oc(-c2cccs2)nc1S(=O)(=O)c1ccccc1,-0.5,-0.015
NC(=O)NC(Cc1ccccc1)C(=O)NC1CCCC1 (stereo not given),1.1,·
Cc1cc2c(cc1C)C(C)CC(C)(C)N2 (stereo not given),2.6,0.2
CC(C)CN(C(=O)CN1CCC(C)CC1)c1c(N)n(CC(C)C)c(=O)[nH]c1=O,-3.8,·
CCNC(=O)N1c2ccccc2Sc2ccccc21,-0.5,0.14
COc1c2ccoc2nc2c(OC)c(OCC(O)C(C)(C)O)ccc12 (stereo not given),1.9,0.87
Cc1nc(-c2noc(C(=O)NN)n2)cs1,-1.2,-0.25
CCCc1nc2ccc(NC(=O)c3ccco3)cc2c(=O)n1Cc1ccccc1Cl,-1.0,-0.76
Cc1c(C(=O)Nc2nccs2)nnn1-c1ccccc1Cl,-3.0,-1.1
O=C(CN(Cc1cccs1)C(=O)c1csnn1)NC1CCCC1,0.1,0.19
CCc1nn(CC(=O)NCCCN2CCC(Cc3ccccc3)CC2)c(=O)c2cc3sccc3n12,-3.0,-0.11
Cc1onc(-c2c(Cl)cccc2Cl)c1C(=O)NC(C)(C)C,0.4,0.74
CN(C)C(=S)NCc1ccccc1,2.4,·
CNC(=S)NCc1sc2ccccc2c1C,-1.0,·
CC(c1ccco1)N(C(=O)Nc1ccc(Cl)cc1)c1ccccn1 (stereo not given),1.2,·

Quoted at random: 3 entries already listed
SMILES,Ab BasE inh,KSHV LANA nucl
O=C(/C=C/c1cccs1)Nc1ccc(N2CCCC2)c(C(=O)O)c1,·,2.1
CCOC(=O)N1CCC(NC(=O)Nc2cc(C)oc2C(F)(F)F)CC1,-0.4,·
Cc1cncc(C(=O)NN)c1,1.1,1

Record cards (already shown):
CN(C)C(=S)NCc1ccccc1 as listed: Ab BasE inh: 2.4; KSHV LANA nucl: ·
O=C(CN(Cc1cccs1)C(=O)c1csnn1)NC1CCCC1 as listed: Ab BasE inh: 0.1; KSHV LANA nucl: 0.19
CCC1CCC(c2nnc(-c3ccc(Br)cc3)o2)CC1 (stereo not given) as listed: Ab BasE inh: 1.4; KSHV LANA nucl: ·

Additional compounds
SMILES,Ab BasE inh,KSHV LANA nucl
Cc1cc(C)nc(SC2CCCCC2=O)n1 (stereo not given),0.0,0.15
Cc1cc(C)cc(C(=O)NN2CCOCC2)c1,-0.8,-0.092
C=CCOc1ccc(-c2nn3c(-c4ccoc4C)nnc3s2)cc1,-1.9,0.2
CN(C)c1ccc(/C=N/O)c(N(C)C)c1C#N,·,-0.56
COC(=O)C(CC(C)C)N1C(=O)c2cc(Cl)c(Cl)cc2C1=O (stereo not given),1.5,-0.21
Cn1c(NN)nc2sc3c(c2c1=O)CCCC3,0.3,-0.31
Cc1cc(C(=O)Cn2cnc3ccccc3c2=O)c(C)n1-c1ccccc1,1.7,·
COc1ccc(OCC(O)CNC(=O)c2ccc(OC(F)(F)F)cc2)cc1 (stereo not given),3.3,·
C/C(=N\OC(=O)c1ccc(C(F)(F)F)cc1)c1ccc[nH]1,-0.3,0.31
CC(C)OC(=O)CSc1nnc(-c2ccc(Cl)cc2Cl)o1,-0.2,-1
Cc1cc(OC(=O)c2nn(-c3ccccc3)nc2C)n(-c2ccccc2)n1,-0.6,1.9
O=C(O)CSCc1nc(-c2cnc3n(c2=O)CCS3)no1,0.6,-0.22
N#Cc1cccc(NC(=O)CC(NC(N)=O)c2ccccc2Cl)c1 (stereo not given),0.3,·
Cc1nn(-c2ccccc2)c(C)c1C(=O)N1CCCc2ccccc21,-17,·
COc1ccc(Cl)cc1NC(=O)Cc1coc2cc(C)cc(C)c12,-1.5,-0.18
CCOC(=O)c1[nH]c(=O)[nH]c1CN(Cc1ccco1)Cc1[nH]c(=O)[nH]c1C(=O)OCC,0.8,-0.18
Cc1sc2ncnc(OCc3ccc(C#N)cc3)c2c1C,-4.2,·
Cc1cc(C)c(C#N)c(NC2CCCCC2)n1,1.1,-0.27
CCSc1nnc2c(=O)n(C)c(=O)n(C)c2n1,-1.0,1.2
CC1CCN(C(=O)COC(=O)C2(S(=O)(=O)c3ccc(Br)cc3)CCCC2)CC1,0.5,·
CC(=O)OCC(=O)[C@@]12OC(C)(C)O[C@@H]1CC1C3C[C@H](F)C4=CC(=O)C=C[C@]4(C)[C@@]3(F)[C@@H](O)C[C@@]12C (stereo not given in full),-0.5,-0.19&-0.29
COc1ccccc1N1CCN(C(C)C(=O)NCC2CCCCC2)CC1 (stereo not given),2.2,·
COc1cc(S(=O)(=O)N2CC(C)OC(C)C2)c(OC)cc1Cl (stereo not given),0.3,-1.2
CCn1c(CSc2nc3ccccc3s2)nnc1SC(C)C(=O)Nc1ccc(N(C)C)cc1 (stereo not given),2.4,·
CC(=O)N1c2ccccc2N(C(C)=O)C(C)C1C (stereo not given),3.1,0.3

The list continues.
SMILES,Ab BasE inh,KSHV LANA nucl
O=C(NCc1ccco1)c1csc2c1CCCC2,-2.0,0.67
CCc1ccc(N2CCN(S(=O)(=O)c3ccccc3)CC2)cc1,1.6,-0.58
CSc1ccccc1NC(=O)CN(C)C(=O)c1ccc(S(=O)(=O)N(C)C)cc1,0.1,·
Cn1nnnc1SCC(=O)NC1CC1,2.0,·
COc1cccc(N2CCN(S(=O)(=O)c3ccc4c(c3)N(C(C)=O)CCO4)CC2)c1,-5.9,0.45
NNC(=O)Cc1nn2c(C3CCCCC3)nnc2s1,-0.2,·
N/C(=N\OC(=O)Nc1ccccc1)c1ccno1,-0.5,-0.033
SCCCCOc1ccccc1Br,2.1,0.11
c1ccc(C2=NC3(CCCC3)N=C2c2ccccc2)cc1,-2.2,·
CCNc1nc(NCC)nc(C(N)=O)n1,-0.8,-0.39
COc1ccc(CN2CC(C(=O)NCCc3ccccc3)CC2=O)cc1 (stereo not given),0.4,-0.72
CCOC(=O)c1c(C)oc2ncnc(N3CCOCC3)c12,1.7,·
CC(=O)Nc1cccc(-c2nnc3n2CC(C)S3)c1 (stereo not given),0.1,0.016
CC(C)NC(=S)Nc1ccccn1,-2.4,·
OC(c1cccc(OCc2ccccc2)c1)c1nnc(-c2ccccc2)o1 (stereo not given),-0.2,·
Cc1cc2c(=O)n(CC(=O)Nc3ccccc3)cnc2s1,-2.7,-0.13
Cc1ccc(N(C(=O)c2cccc(F)c2)C2C=CS(=O)(=O)C2)cc1 (stereo not given),1.3,-0.16
O=C(c1ccc2ccccc2n1)N1CCOCC1,3.3,0.83
CCOC(=O)C1=NNC2C(=O)NC(=O)C12 (stereo not given),4.2,0.22
CCc1cccc(C)c1NC(=O)N(Cc1ccccc1)C(C)C,0.6,·
Cc1csc(=Nc2ccccc2)n1C1CCCC1,-0.3,·
COc1ccc(OC)c(NC(=O)C2C3C=CC(C3)C2C(=O)NCc2cccnc2)c1 (stereo not given),-3.9,2.3
Cc1cc(N2CC(C)CC(C)C2)nc2ccc(NC(=O)CCC(=O)NCc3ccco3)cc12 (stereo not given),-0.1,-1.3
O=C1CCCN1CP(=O)(O)CCc1ccccc1,0.3,-1.5
Cc1nc(-c2cccc(NS(=O)(=O)c3cccs3)c2)cs1,-7.0,·

More compounds:
SMILES,Ab BasE inh,KSHV LANA nucl
COc1ccc(CCNS(=O)(=O)N(C)C)cc1,0.7,-0.13
CC1=NN(c2ccc(N)cc2)C(=O)C1,1.5,-0.22
O=C(Cn1c(C(=O)N2CCN(C(=O)c3ccco3)CC2)cc2sccc21)c1ccccc1,2.4,-0.11
CCCN(Cc1nnc(-c2ccccc2Cl)o1)C(=O)c1c(F)cccc1Cl,-3.2,·
Cc1ccc2[nH]c(C)c(CN(C)C)c(=O)c2c1,-1.4,1.8
Nc1ncc(C2(O)C(=O)Nc3c(Br)cc(F)cc32)s1 (stereo not given),4.3,·
CSc1ncc(C(=O)NCc2ccco2)c(C(F)(F)F)n1,-1.7,0.28
Cc1nc(COC(=O)c2c(C)nn(-c3ccccc3)c2C)cs1,3.7,·
Cc1ccc(-n2nc(C(F)(F)F)cc2-c2cccs2)cc1,-0.3,·
CCc1ccc(CN(C)C(=O)c2ccc3c(c2)OCO3)cc1,-2.1,·
CCSc1nnc(NC(=O)CN2C(=O)C3CC=CCC3C2=O)s1 (stereo not given),1.1,·
C=CCn1c(O)c(C2=c3ccccc3=NC2=O)sc1=S,0.1,·
CCOC(=O)C1CCN(C2CC(=O)N(c3ccc(NC(C)=O)cc3)C2=O)CC1 (stereo not given),0.6,0.029
O=C(O)C1=NN(c2ccccc2)C(=O)C1,-0.6,-0.49
O=C(O)/C=C/c1ccc(N2C(=O)CC(Cc3ccccc3)C2=O)cc1 (stereo not given),-0.4,·
CCOC(=O)N1CCN(CC(O)COc2cc(C)cc(C)c2)CC1 (stereo not given),0.1,-0.4
CCC/C=C/C(=O)Nc1ccc(C)cc1,2.1,·
COc1cccc(NC(=O)CN(C)C(=O)C2CC3C=CC2C3)c1 (stereo not given),2.5,·
CCOc1ccc(NC(=O)Cn2ccc3c(OCC(=O)OC)cccc3c2=O)cc1,2.3,-0.62
O=C(NC1CCN(C(=S)NCc2ccco2)CC1)NC12CC3CC(CC(C3)C1)C2,-0.1,-0.43
CN1CCN(S(=O)(=O)c2ccc(C(N)=O)cc2)CC1,-0.5,0.63
O=C(COC(=O)c1ccc(CN2CCCC2=O)cc1)Nc1ccc(F)cc1,0.4,·
c1ccc(-n2cc(-c3nc4ccccc4[nH]3)c(-c3ccco3)n2)cc1,-0.7,·
CC(=O)OCC(=O)[C@@]1(O)CCC2C3CCC4=CC(=O)CC[C@]4(C)[C@@]3(F)[C@@H](O)C[C@@]21C (stereo not given in full),-0.6,0.13&-0.7

From PubChem BioAssay

An excerpt. The share of hits here may be higher or lower than overall.
